AID504770 = growth inhibition of E. coli YBA685, primary screen, V. cholerae RctB inhibitors. z-score (concentration not given with the values). E. coli YBA685 rctB-dependent plasmid, OD600 growth, 3 h; stronger effect = lower value. 130,000 tested, 0.27% active. AID 504770, 2011;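 active = z-score under -2 on both plates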;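 also: wells of about 30 µL received 100 nL stock; score is relative to mean and SD of the test wells; the first replicate is given; strong numbers were not always called active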
Ba CapD inh = Bacillus anthracis CapD inhibitors, primary screen, biochemical, fluorescence intensity; purified CapD enzyme, fluorescence intensity read-out; stronger effect = lower value; some hits fall short of the stated cut; z-score (concentration not given with the values); 140,000 tested, 0.23% active;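 active = z-score under -4 in either of two replicates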;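 also: stock transfer was 100 nL into about 40 µL; score is relative to mean and spread of the plate; one replicate is shown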
* marks the source's active call; other numbers are inactive results; i = inactive; . = not tested or not shown.

| SMILES | AID504770 | Ba CapD inh |
| --- | --- | --- |
| CC(C)(C)C1(C)OC(=O)C(=Cc2ccc(Br)o2)C(=O)O1 (stereo not given) | -0.25 | -5.1* |
| Cc1c(C(=O)OCC(=O)c2cc(C)n(NC(=O)c3n[nH]c(=O)c4ccccc34)c2C)oc2ccc(Cl)cc12 | 0.2 | . |
| Brc1ccc(Nc2nc(-c3cccnc3)nc3ccccc23)cc1 | . | 1.8 |
| Brc1ccc(CSc2nccn2Cc2ccccc2)cc1 | -0.5 | 0.1 |
| CS(=O)(=O)N1CCN(c2ccc(NC(=O)Nc3cccc(Cl)c3)cc2)CC1 | 0.55 | 0.65 |
| CCOC(=O)c1c(C)n(-c2ccccc2)c2c1cc(OC(=O)c1ccccc1Cl)c1ccccc12 | . | -0.08 |
| O=C(c1ncoc1-c1cccs1)N1CCOCC1 | 0.9 | 5.3 |
| O=C(CN1C(=O)NC(c2ccccc2)(c2ccccc2)C1=O)c1ccc[nH]1 | 0.95 | . |
| COCCNC(=O)c1cc(-c2cccnc2)nc2ccc(S(=O)(=O)N3CCCCCC3)cc12 | 0.75 | -0.45 |
| N#CSc1ccc(N)c(Br)c1 | -1.6 | . |
| O=S(=O)(c1cc(Cl)cc(Cl)c1)N1CC=C(c2ccccc2)CC1 | -0.3 | 0.58 |
| O=c1/c(=C\c2ccc(F)cc2)sc2n1CCN=2 | -0.9 | -3.7 |
| O=C1N(Cc2c[nH]c3ccccc23)c2ccccc2C12OCCO2 | . | -0.005 |
| O=C(CN1CCCCC1)N1c2ccccc2Sc2ccccc21 | -0.6 | -0.73 |
| O=S(=O)(c1ccccc1)c1ccc(N2CCCCC2)cc1 | 0.15 | . |
| Nc1nc(SCC(=O)NCCc2ccc(S(N)(=O)=O)cc2)n[nH]1 | . | -0.65 |
| O=C(CCN1C(=O)c2ccccc2C1=O)NCc1ccccc1 | -0.25 | . |
| O=C(c1cccs1)N1CCN(C(=O)c2cccs2)CC1 | 0.7 | . |
| O=C1CC(SCc2nc3ccccc3[nH]2)C(=O)N1c1ccc(F)cc1 (stereo not given) | -0.8 | . |
| Nc1nc2ccc(C(=O)O)cc2s1 | -0.7 | . |
| O=C1NCCN1CCN1C(=O)c2ccccc2NC1c1ccccc1 (stereo not given) | 0.1 | 108 |
| O=C(NC1CCCCCCC1)c1cc(-c2ccc(Cl)cc2)n[nH]1 | 1.5 | 0.49 |
| COc1ccc2cc(CCNS(=O)(=O)c3ccccc3)c(=O)[nH]c2c1 | 0.4 | . |
| O=S(=O)(NC1Cc2ccccc2C1N1CCCC(C(F)(F)F)C1)c1ccccc1 (stereo not given) | -0.4 | . |
| COc1ccc(-c2cc(N)n(CCC#N)n2)c(OC)c1 | -0.3 | 1 |

(further entries)
| SMILES | AID504770 | Ba CapD inh |
| --- | --- | --- |
| CC1=C(C(=O)OCc2ccc3c(c2)OCO3)C(c2ccc([N+](=O)[O-])cc2)NC(=O)N1 (stereo not given) | . | -0.3 |
| Cc1nnsc1C(=O)NC1CCCCC1 | 0.8 | -0.49 |
| CCNC(=O)N1CCC(c2nc(-c3ccc(S(C)(=O)=O)cc3)no2)CC1 | . | -0.08 |
| COCc1cc(C)nc2sc3c(=O)n(-c4cc(Br)cc5cccnc45)nnc3c12 | . | 0.34 |
| N#CC(C#N)=C(/C=C/c1cccs1)C1CC1 | 0.3 | 0.38 |
| CCOC(=O)C1=C(N)N(c2cccc(C)c2)C2=C(C(=O)CCC2)C1c1cc(OC)c(OC)c(OC)c1 (stereo not given) | . | -0.085 |
| CC1Cn2cc(C(=O)N3CCN(Cc4ccc5c(c4)OCO5)CC3)c(=O)c3c(Cl)ccc(c32)O1 (stereo not given) | -0.4 | 128 |
| O=C(NC1CCCCC1)OCn1c(=O)oc2cc(Cl)ccc21 | 0.9 | -0.23 |
| C=CCN1C(=O)S/C(=C\c2ccc(CC)s2)C1=O | 0.5 | -1.4 |
| CC(=O)Nc1cccc(Oc2nnc(-c3ccc(C)cc3)c3ccccc23)c1 | . | -0.22 |
| O=C(c1ccccc1)N1CCC(C2CCNCC2)CC1 | 2.9 | . |
| COc1ccc(C2NCCc3c2[nH]c2ccccc32)cc1CSc1nnc(-c2ccccc2)o1 (stereo not given) | . | 0.39 |
| O=C(Nc1ccc(S(=O)(=O)Nc2cnc3ccccc3n2)cc1)c1ccc2c(c1)OCO2 | 0.3 | 0.27 |
| O=C(COC(=O)C(Cc1c[nH]c2ccccc12)NC(=O)c1ccco1)c1ccc(Cl)cc1 (stereo not given) | . | -0.46 |
| Cc1cccc(C(=O)NCCN2C(=O)S/C(=C\c3ccc(F)cc3)C2=O)c1C | 0.7 | 0.35 |
| CCN(CC)c1ccc2cc(S(=O)(=O)c3ccc(Cl)cc3)c(=O)oc2c1 | 0.3 | 0.42 |
| O=C(Cn1c2[n+](c3ccccc31)CC(O)CS2)N1CCCCC1 (stereo not given) | 0.15 | . |
| O=C(COC(=O)c1ccc(NC(=O)c2ccccc2Br)cc1)c1ccc(Br)cc1 | . | -0.15 |
| COc1ccc(S(=O)(=O)NCCOc2ccccc2)cc1-n1cnnn1 | 0.45 | . |
| CCC(C)c1ccccc1NC(=O)C1CSC2(C)CCC(=O)N12 (stereo not given) | 0.5 | . |
| CCN(CC)C(=O)c1sc2[nH]c(=O)n(-c3ccccc3)c(=O)c2c1C | -1.1 | -0.9 |
| O=C(NCCN1CCOCC1)c1cc(-c2ccco2)on1 | 0.05 | 0.81 |
| CCOc1ccccc1CN1C(=O)c2ccccc2C1C(=O)NCCCN1C(C)CCCC1C (stereo not given) | -0.1 | -0.6 |
| CCn1c(SCC(=O)O)nc2cc(Cl)c(Cl)cc21 | -0.6 | 0.38 |
| CS(=O)(=O)c1ccc(Cl)c(C(=O)O)c1 | 0.65 | -0.6 |

Next section (five carried over from the part before).
Values in the order: AID504770	Ba CapD inh
CCN(CC)C(=O)c1sc2[nH]c(=O)n(-c3ccccc3)c(=O)c2c1C
→ -1.1	-0.9
O=C(NCCN1CCOCC1)c1cc(-c2ccco2)on1
→ 0.05	0.81
CCOc1ccccc1CN1C(=O)c2ccccc2C1C(=O)NCCCN1C(C)CCCC1C (stereo not given)
→ -0.1	-0.6
CCn1c(SCC(=O)O)nc2cc(Cl)c(Cl)cc21
→ -0.6	0.38
CS(=O)(=O)c1ccc(Cl)c(C(=O)O)c1
→ 0.65	-0.6
Cc1nn(Cc2ccccc2Cl)c(=N)s1
→ .	-0.4
COc1ccc(/C=N\N2CCN(c3ccccc3)CC2)cc1
→ -0.3	0.13
Cc1ccsc1C(=O)Nc1sc2c(c1C#N)CCCC2
→ -0.2	.
CC1CN(C)C(C)CC1NCCc1ccccc1 (stereo not given)
→ -0.25	.
FC(F)(F)c1ccc(-c2ncc(-c3ccncc3)c(-c3ccccc3)n2)cn1
→ .	-0.33
N=C1/C(=C\c2cccn2-c2ccc3ccccc3c2)C(=O)N=C2SC=NN12
→ 1.1	-1.3
COc1ccccc1C1CC(c2c(-c3ccccc3)c3cc(Cl)ccc3[nH]c2=O)=NN1C(=O)CCC(=O)O (stereo not given)
→ .	-1.3
CCOc1ccc(C(=O)/C=C2/NCCNC2=O)cc1
→ -0.4	-1.8
CC(C)(C)S(=O)(=O)c1ccsc1
→ 1.4	-0.41
COc1cc(C=Nc2cc(C)ccc2NC(C)=O)cc(OC)c1OC
→ 0.45	1.4
CN(CC(=O)C1=C(c2ccc(Br)cc2)C(=O)c2ccccc2C1=O)c1ccccc1
→ 0.05	0.45
CCCOC(=O)c1ccc(NCC(=O)Nc2ccc(C)cc2)cc1
→ 0.6	0.23
COc1ccccc1-c1nc2c3c4c(sc3ncn2n1)C(C)(C)NC(C)(C)C4
→ .	0.44
Cc1c(/C=N\NC(=O)OC(C)(C)C)c2ccccc2n1C
→ -0.4	-0.42
CCCCN1C(=O)C2Cc3c([nH]c4ccccc34)CN2C1=S (stereo not given)
→ -0.05	0.41

Full records as entered above.
FC(F)(F)c1ccc(-c2ncc(-c3ccncc3)c(-c3ccccc3)n2)cn1 as listed: AID504770: .; Ba CapD inh: -0.33
COc1ccccc1C1CC(c2c(-c3ccccc3)c3cc(Cl)ccc3[nH]c2=O)=NN1C(=O)CCC(=O)O (stereo not given) as listed: AID504770: .; Ba CapD inh: -1.3

(next part)
Values in the order: AID504770	Ba CapD inh
Clc1ccc2nc(N3CCNCC3)nc(-c3ccccc3)c2c1
→ -0.6	i
FC(F)(F)c1cccc(COCCn2cc(-c3ccc(Cl)cc3)cn2)c1
→ .	-0.29
CCn1cc(S(=O)(=O)c2ccccc2)c(=O)c2cc(F)ccc21
→ -0.3	-0.075
FC(F)(F)C1=NC(C(F)(F)F)=NP(N2CCCCC2)(N2CCCCC2)=N1
→ 0.5	.
Cc1cc2c(cc1C)N(C(=O)c1ccc3c(c1)OCO3)C(C)(C)c1ssc(=S)c1-2
→ .	0.84
N#Cc1ccsc1NC(=O)c1ccc(S(=O)(=O)N2CCOCC2)cc1
→ -2.1	.
CCCc1nn2c(=O)cc(COc3cccc(NC(=O)c4ccccc4)c3)nc2s1
→ 1.1	-0.88
OC(CNC1CCCCCC1)C(F)(F)F (stereo not given)
→ -0.15	-0.2
O=S(=O)(NN=C1CCCCC1)c1ccccc1
→ 0.55	.
CN(C)c1ccc(/C=C2\c3cc([N+](=O)[O-])ccc3-c3c2cc([N+](=O)[O-])cc3[N+](=O)[O-])cc1
→ .	0.09
O=C(Cc1ccccc1)c1ccc(OC2OC(CO)C(O)C(O)C2O)cc1O (stereo not given)
→ .	-0.88
CCC(c1nnc(SCC(=O)NCC(C)C)o1)N(C)C (stereo not given)
→ -0.45	.
O=C1CC(SCCO)C(=O)N1c1ccccc1 (stereo not given)
→ -0.9	-0.55
COc1cc(/C=C2/SC(=O)N(c3ccccc3)C2=O)cc(Br)c1O
→ .	-0.41
CC(C)N(CC(N)=O)C(=O)c1ccccc1Nc1ccc(F)cc1
→ 1.4	.

(further entries)
Values in the order: AID504770	Ba CapD inh
CC(=O)Nc1ccc(Cc2ccncc2)cc1
→ -0.15	.
O=C(NN1C(=O)c2ccccc2C1=O)C1CC2CCC1C2 (stereo not given)
→ -0.2	.
COc1ccc(/C(C#N)=C/c2cccs2)cc1
→ -1.2	-0.28
COc1cccc(OC)c1CCOC(=O)c1c(F)cccc1F
→ -0.25	-0.79
COc1cc(CN(C)Cc2cc3c(cc2O)CCC3)ccc1OC(F)F
→ -0.05	.
CC1(C)CC(=O)C2=C(C1)Nc1ccccc1N(C(=O)Cc1ccccc1)C2c1cccc([N+](=O)[O-])c1 (stereo not given)
→ .	-0.81
COC(=O)CCc1c(C(=O)OCc2ccccc2)[nH]c(C)c1C(=O)OC(C)(C)C
→ .	0.14
Cc1cccc(NC(=O)C2C(C)(C)C2(C)C)c1C
→ -0.45	0.21
CC(C)C(=O)Nc1ccc(C(=O)Oc2ccccc2)c(O)c1
→ 0.4	-0.3
Cc1nn(C)c(Nc2ccc(Br)cc2)c1Br
→ 1.1	-0.94
CCCCNc1ccccc1C(=O)O
→ -0.2	.
COc1ccc(NC(=O)c2cc(-c3ccccc3)nc3ccccc23)c(OC)c1
→ .	-0.025
N#Cc1c(CN2CCOCC2)cn2ccccc12
→ 0.55	.
CC(C)(Oc1ccc(Cl)cc1)C(=O)OCC(=O)N1CCCc2ccccc21
→ -0.8	-0.62
Cc1cc(OCc2nc(-c3ccc(NC(=O)c4ccco4)cc3)no2)ccc1Cl
→ .	0.59

(further entries)
Values in the order: AID504770	Ba CapD inh
C=CCc1cccc2cc(C(=O)N3CCN(c4ccccc4OC)CC3)c(=O)oc12
→ .	-0.38
CN(C(=O)c1cc(-c2ccccc2)n[nH]1)C1CCCCC1
→ 0	0.16
CN1CC=C2C(C#N)=C(N)C(C#N)(C#N)C(c3ccccc3)C2C1 (stereo not given)
→ 0.4	3.5
COc1ccc(CNc2ncnc3ccccc23)cc1
→ 0.55	.
Clc1ccc(C2=NN3C(C2)c2ccccc2OC3c2ccc(OCc3ccccc3)cc2)cc1 (stereo not given)
→ .	0.85
Cc1ccc2[nH]c(=O)c3cc(C(=O)NCCN(C)Cc4ccccc4)sc3c2c1
→ -0.75	0.22
Cc1oc(-c2ccc(Cl)cc2)cc1-c1nn2c(-c3ccco3)nnc2s1
→ -0.3	96
CCC1(C)Nc2ccccc2-c2nc3ccccc3n21 (stereo not given)
→ 0.1	0.55
O=C(NCC1CCCO1)C1CC(c2ccccc2O)=NO1 (stereo not given)
→ -0.75	.
CCCCOc1ccc2nc3c(nc2c1)C(=O)c1ccccc1C3=O
→ 1.8	0.025
CCOC(=O)c1cnn(CCOC(=O)CC)c1NC(=O)CC
→ -0.55	0.3
O=C(Nc1cccc(F)c1C(=O)NCc1cccs1)c1cccs1
→ 0.65	0.58
O=c1oc2ccccc2cc1C1=Nn2c(nnc2-c2ccc(Br)cc2)SC1
→ .	-1.1
CC(C)C(C)(C#N)NC(=O)CSc1nc2ccccc2c(=O)n1C1CCCC1 (stereo not given)
→ 0.55	.
COC(=O)C1=C(N)OC2=C(C(=O)CC(C)(C)C2)C1c1ccccc1 (stereo not given)
→ -0.25	0.03

Look-ups from above.
In AID504770, `Cc1nnsc1C(=O)NC1CCCCC1` reads 0.8
In Ba CapD inh, `CCOc1ccccc1CN1C(=O)c2ccccc2C1C(=O)NCCCN1C(C)CCCC1C` (stereo not given) reads -0.6
In AID504770, `COc1ccc(/C(C#N)=C/c2cccs2)cc1` reads -1.2
In Ba CapD inh, `COc1ccccc1-c1nc2c3c4c(sc3ncn2n1)C(C)(C)NC(C)(C)C4` reads 0.44
In Ba CapD inh, `O=C1NCCN1CCN1C(=O)c2ccccc2NC1c1ccccc1` (stereo not given) reads 108

Further structures.
Values in the order: AID504770	Ba CapD inh
CC1CCCN(c2ccc3nncn3n2)C1 (stereo not given)
→ 1.1	-1.5
CCN(CC)C(=O)Cn1cnc2sc(C(=O)Nc3nc4ccccc4s3)c(C)c2c1=O
→ .	1.9
O=S(=O)(NCc1cc(F)cc2c1OCOC2)c1ccc(-c2ccccn2)s1
→ -0.2	0.89
Cc1nc2c(c(C)c1CCC(=O)NCC1CCN(CC(C)C)C1)c(=O)n(C)c(=O)n2C (stereo not given)
→ -1.4	6.4

Source: PubChem
